miR-21 reporter: miR-21 reporter, rising signal; HeLa miR-21 FLuc reporter, luciferase, 48 h; Potency, µM (titrated, usually from 38.3 µM), without a hit: at the highest dose reporter change, positive = more light; 340,000 tested, under 10 active; active = well fitted rising curve with a large enough effect; inconclusive = small, poorly fitted or top-dose-only effect; inactive = no such curve, though single readings can be large or run the other way;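 further: % of control where 0% means no effect; miR-21 action dims this reporter so a rising signal means less miR-21 action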
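Compounds were titrated across several concentrations (up to approximately 40 uM) and incubated 48 hours with HeLa miR-21-FLuc reporter cells (miR-21 target sequence downstream of FLuc, endogenous miR-21). Readout was firefly luciferase luminescence after lytic detection reagent.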
GLA inh pH 4.5: inhibitors of human alpha-galactosidase A at pH 4.5. AID 1467. activity change, negative = inhibition, % at 105 µM. purified enzyme, 4-MU-alpha-Gal fluorescence, pH 4.5. 230,000 tested, under 10 active; inconclusive = small, poorly fitted or top-dose-only inhibition, or a rising curve; inactive = flat fitted curve, though single readings scatter; no compound was filed as active;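 further: 0% = full activity with enzyme and -100% = basal without enzyme; dose as in the result columns while the protocol names 77 µM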
Rango dissoc inh: inhibition of RanGTP-driven Rango-importin beta dissociation. Potency, µM (titrated, usually from 46.1 µM), for inactives: at the highest dose activity change, negative = inhibition. hit rate 0.071% among 340,000. Biochemical FRET Rango-importin beta, RanGTP-induced dissociation. AID 540253. O95149+P62826; active means falling FRET ratio curve, often poorly fitted, with flat reads before Ran was added; inconclusive means other falling curves, or compound fluorescence or quenching; inactive means flat or rising ratio curve;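 further: potency means the concentration at half of the fitted maximal effect; % of control where 0% means no effect; nearly all actives have a fitted effect of over 45% in size; -100% = wells without RanGTP and RCC1; the record marks most hits as doubtful in a second field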
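Compounds preincubate 5 min with complex of recombinant Rango and importin beta in PBS with 1 mM DTT. Ran (0.6 uM) loaded with 2 mM GTP plus 0.2 uM RCC1 starts dissociation; FRET is recorded 45 min later.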
Rango-impB inh: Rango-importin beta binding inhibition | AID 540263 | Rango CFP/YFP FRET sensor + importin beta, 45 min | hit rate 0.031% among 340,000 | Potency, µM (series often up to 92.2 µM), for inactives: at the highest dose inhibition of complex formation | Q14974; active = rising FRET ratio curve, often small or poorly fitted; inconclusive = mostly compound fluorescence or quenching in the first reads; inactive = flat curves in all reads;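 further: potency means the concentration at half of the fitted maximal effect; 0% = DMSO wells and 100% = buffer wells lacking importin beta; nearly all actives have a fitted effect of over 15% in size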
Target sequence (Q14974 whole entry, looked up): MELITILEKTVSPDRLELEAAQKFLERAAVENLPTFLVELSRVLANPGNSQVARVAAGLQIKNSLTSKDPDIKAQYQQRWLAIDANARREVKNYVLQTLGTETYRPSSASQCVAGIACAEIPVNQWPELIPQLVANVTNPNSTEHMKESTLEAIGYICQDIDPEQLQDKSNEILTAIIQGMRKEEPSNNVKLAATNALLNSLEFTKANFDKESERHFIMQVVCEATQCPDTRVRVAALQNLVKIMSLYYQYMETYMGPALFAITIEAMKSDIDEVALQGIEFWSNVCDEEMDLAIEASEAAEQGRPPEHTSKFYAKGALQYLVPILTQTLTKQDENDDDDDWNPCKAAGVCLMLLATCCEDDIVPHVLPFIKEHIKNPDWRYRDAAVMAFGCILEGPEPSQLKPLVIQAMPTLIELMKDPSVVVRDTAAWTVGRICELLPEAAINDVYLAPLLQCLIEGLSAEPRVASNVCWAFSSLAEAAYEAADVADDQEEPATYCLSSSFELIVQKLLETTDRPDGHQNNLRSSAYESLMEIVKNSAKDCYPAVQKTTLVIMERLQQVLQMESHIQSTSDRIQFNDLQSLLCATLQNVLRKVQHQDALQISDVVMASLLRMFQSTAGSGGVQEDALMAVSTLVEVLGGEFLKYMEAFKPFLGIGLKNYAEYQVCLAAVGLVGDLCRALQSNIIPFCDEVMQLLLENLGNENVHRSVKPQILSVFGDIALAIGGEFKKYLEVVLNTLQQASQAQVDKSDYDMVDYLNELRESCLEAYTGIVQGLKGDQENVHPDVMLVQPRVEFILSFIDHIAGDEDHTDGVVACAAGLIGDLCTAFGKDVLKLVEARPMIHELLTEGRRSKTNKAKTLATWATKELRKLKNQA
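FRET biosensor Rango (snurportin 1 IBB between N-terminal EYFP and C-terminal Cerulean), 50 nM in PBS/1 mM DTT/0.02% Tween-20/0.1% BSA, preincubated 5 min RT with compound; 0.125 microM importin beta added, 45 min RT, CFP/YFP FRET ratio read.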
* marks the source's active call; other numbers are inactive results; ? = inconclusive; . = not tested or not shown; & = joins results of further samples.

miR-21 reporter	GLA inh pH 4.5	Rango dissoc inh	Rango-impB inh	molecule
-1%	-25	-2%	-0.8%	CC(C)CCNc1nc(N)c([N+](=O)[O-])c(NCC2CCCO2)n1 (configuration not stated)
-28%	-1	19%	-1.2%	CC(C)Sc1ncnc2c1oc1ccccc12
-8%	-9	6%	-0.1%	O=C(/C=C/c1cccc([N+](=O)[O-])c1)NCCSCc1ccccc1Cl
-3%	1	4%	-0.4%	CC1CN(C2CCN(C(=O)c3ccccc3Cl)CC2)CC(C)O1 (configuration not stated)
.	.	0%	1.6%	O=C(CSc1nccn(-c2ccc(F)c(Cl)c2)c1=O)NC1CCCC1
0%	1	6%	2.1%	C=CCC(c1ccccc1)N(C(C)=O)c1ccco1 (configuration not stated)
-3%	-11	-10%	-3.3%	COc1ccc(-c2nc3ccccc3c(=O)n2-c2c(C)n(C)n(-c3ccccc3)c2=O)cc1
8%	-4&2&2	-10%	-0.9%	O=C(Nc1ccccc1)c1cc([N+](=O)[O-])ccc1Cl
?	-6	1%	1.0%	O=C(Cn1ncc(Cl)c(Cl)c1=O)c1ccc(Cl)cc1
2%	2	-9%	5.4%	CC12CS(=O)(=O)CC1SC(=S)N2c1ccccn1 (configuration not stated)

Some of these compounds in order of the miR-21 reporter value, rising.
miR-21 reporter	GLA inh pH 4.5	Rango dissoc inh	Rango-impB inh	molecule
-28%	-1	19%	-1.2%	CC(C)Sc1ncnc2c1oc1ccccc12
-8%	-9	6%	-0.1%	O=C(/C=C/c1cccc([N+](=O)[O-])c1)NCCSCc1ccccc1Cl
-3%	1	4%	-0.4%	CC1CN(C2CCN(C(=O)c3ccccc3Cl)CC2)CC(C)O1 (configuration not stated)

Next results:
miR-21 reporter	GLA inh pH 4.5	Rango dissoc inh	Rango-impB inh	molecule
.	.	19%	-0.8%	O=C1C=C(c2cccc3c2oc2ccccc23)C[C@@H](c2ccc(F)cc2)C1
16%	.	-2%	-0.4%	CSc1ccc(CN(C)C(=O)c2cccc(S(=O)(=O)NCc3ccccc3)c2)cc1
27%	-9	14%	2.5%	COc1ccc(CN2C(=O)/C(=C/c3ccncc3)SC2=S)cc1
1%	.	-18%	-0.2%	COc1ccc(N(CC(=O)NN=C2CCN(C)CC2)S(=O)(=O)c2ccccc2)c(OC)c1
8%	5	5%	-1.4%	Cc1cc(/C=N/n2cnnc2)c(C)n1-c1cc(Cl)ccc1Cl
1%&1%	-6	-2%	-1.1%	Cc1ccc(NC(=O)C(Cc2ccccc2)n2cccc2)cc1 (configuration not stated)
0%	.	1%	?	CCC(=O)c1ccc(OCC(=O)N2CCN(c3ccccn3)CC2)cc1
-7%	-4	?	?	Cc1ccccc1-n1c(SCc2c(C)noc2C)nnc1-c1ccncc1
-6%	-1	0%	0.9%	O=c1[nH]c2ccc(Cl)cc2c(O)c1-c1ccccc1
-5%	6	-11%	0.6%	CCCCCCNC(=O)c1c(O)c2ccccc2[nH]c1=O
-2%	0	3%	4.4%	Cn1c(=S)[nH]c2cccnc21
-5%	.	-4%	0.5%	CCCCCC(=O)Nc1ccc(S(=O)(=O)Nc2cc(OC)nc(OC)n2)cc1
.	.	11%	1.6%	COc1ccc(/C=C2\SC(=O)N(CCCC(=O)Nc3cc(Cl)ccc3C(=O)O)C2=O)cc1
-3%	7	-6%	-2.7%	Cc1cc(C)n(C(=O)CN2C(=O)c3ccccc3C2=O)n1
-7%	-12	-6%	-0.9%	Cc1ccccc1S(=O)(=O)Cc1ccc(C(=O)NC(C)c2ccc3c(c2)OCCO3)o1 (configuration not stated)
.	.	0%	-1.7%	O=C(NN1CCOCC1)c1ccco1
-2%	6	-2%	0.6%	COc1ccc(N)cc1-n1cnnn1
-2%	.	10%	-0.7%	COC(=O)C1(C)NC(c2ccc(Cl)cc2)C2C(=O)N(c3ccccc3)C(=O)C21 (configuration not stated)
0%	6	0%	-2.0%	CCOC(=O)Cc1csc(NC(=S)NC(=O)c2ccccc2C)n1
-6%	0	-7%	0.0%	O=c1cc(CSc2nc3cc(Cl)ccc3o2)nc2sccn12
20%	-8	14%	5.6%	CC(C)S(=O)(=O)c1csc(NC(=O)Nc2ccc(Cl)cc2)c1
-40%	3	-8%	-2.4%	CCOC(=O)c1sc(C)c(C(=O)NC2CCCCC2)c1N
-30%	8	-3%	0.1%	O=C(NCCn1ccc2ccccc21)C1CCCCC1
3%	-1	12%	1.3%	CNC(=O)CSc1nnc(-c2cccnc2)n1-c1ccc(C)cc1
7%	.	-5%	0.7%	Cc1cc(NC(=O)C(C)Sc2nc(-c3ccccc3)cc(=O)[nH]2)no1 (configuration not stated)
0%	.	14%	-0.9%	CSc1cccc(CN2CCC(CCC(=O)NC3CC3)CC2)c1
0%	9	-8%	-3.7%	CCOC(=O)C1CCN(c2nc(-c3ccc(C)cc3)nc3ccccc23)CC1
2%	.	-19%	-2.0%	CCc1ccccc1OCCCN1CCCC1
3%	-20	13%	-2.3%	Cc1onc(-c2ccccc2)c1C(=O)NC(=S)NNC(=O)c1ccco1
-1%	6	-14%	-2.0%	CC(Sc1nnc(NC(=O)c2cc3ccccc3oc2=O)s1)c1ccccc1 (configuration not stated)
-1%	-1	?	?	CCOC(=O)Cc1csc(/N=C/c2c(O)n(-c3ccc(C)cc3C)c(=O)c3ccccc23)n1
-30%	9	19%	0.6%	NC(=O)Cc1ccc(C(=O)c2ccc(Cl)cc2)s1
-6%	.	11%	3.6%	CCCCN(C)CCCNC(=O)c1cn(CC)c2ccc(S(=O)(=O)N3CCOCC3)cc2c1=O
1%	0	28%	-0.7%	Cc1ccc(NC(=O)CN(C)Cc2nc3ccccc3c(=O)[nH]2)c(Br)c1
-14%	-4	?	?	CNc1nc2[nH]c(=O)c3c(c2s1)OC(N)=C(C#N)C3c1cccc(F)c1 (configuration not stated)
.	.	-14%	-1.1%	O=C(NCCCN1CCCC1=O)c1cccc(S(=O)(=O)Nc2ccccc2Cl)c1
-5%	-2	?	?	CCOc1cc(C(=O)Nc2ccc3c4c(cccc24)C(=O)N3CC)cc(OCC)c1OCC
.	.	1%	0.0%	O=C(COC(=O)c1cncc(Br)c1)NCC12CC3CC(CC(C3)C1)C2
-2%	4	2%	1.8%	COc1cccc(-c2c(NC(=O)c3ccco3)n(-c3ccc(C)cc3)nc(C)c2=O)c1
-3%	-5	8%	0.0%	Nn1c(SCc2cc([N+](=O)[O-])cc3c2OCOC3)nnc1-c1ccccn1
-1%	7	0%	-5.5%	O=C(NNS(=O)(=O)c1ccccc1)c1ccncc1
1%	0	10%	1.7%	CCOC(=O)C(NC(=O)CC)(Nc1ccc(S(=O)(=O)Nc2onc(C)c2C)cc1)C(F)(F)F (configuration not stated)
27%	.	-1%	-1.9%	CCN(Cc1ccccc1)S(=O)(=O)c1ccc(C(=O)Nc2nnc(C)o2)cc1
-7%	-3	?	?	CN1CCc2c(sc3c2C(=O)NC(c2ccc4c(c2)OCO4)N3)C1 (configuration not stated)
7%	.	0%	-2.5%	O=C(Nc1ccc(S(=O)(=O)Nc2ccccc2)cc1)C1CC1
4%	3	-2%	0.9%	N=C1C(=O)OCC1c1ccccc1NC(=O)Nc1ccccc1 (configuration not stated)
-11%	4	8%	-0.6%	CNC(=O)c1ncoc1-c1ccc(Cl)cc1
-3%	5	3%	-0.6%	Cc1cc(C)n(CC(=O)N2N=C(C(F)F)CC2(O)C(F)F)n1 (configuration not stated)
-1%	-11	7%	2.0%	O=C(O)CC1C(=O)NCCN1Cc1ccc(F)c(F)c1 (configuration not stated)
-1%	-3	13%	0.6%	COc1cc(/C=N/NC(=O)Nc2ccccc2)ccc1OCCOc1ccccc1C

(list continues)
miR-21 reporter	GLA inh pH 4.5	Rango dissoc inh	Rango-impB inh	molecule
2%	-10	1%	3.8%	COc1cccc(/C=N/NC(=O)c2cc(-c3cccn3C)n[nH]2)c1O
.	.	34%	1.3%	CN(Cc1ccccc1)C(=O)COC(=O)c1ccc(-n2cnnn2)cc1
-8%	9	-12%	?	C/C=C/c1ccc(OCCCNC)c(OC)c1
0%	.	11%	2.6%	O=C(NC(=S)Nc1ccc(Cl)c(C(=O)O)c1)c1cncc(Br)c1
0%	2	-3%	-0.8%	COc1ccc(CNC(=O)CCNS(=O)(=O)c2ccc(Cl)cc2)cc1
-35%	.	-16%	-3.5%	CNC(=O)CC1C(=O)N(c2ccc(F)cc2)C(=S)N1NC(=O)c1ccc(Cl)cc1 (configuration not stated)
-3%	.	17%	-0.2%	CC(CCc1ccccc1)NC(=O)c1ccccc1C(=O)O (configuration not stated)
-5%	5	3%	-1.6%	Cc1nc2cc(C(=O)OCC(=O)Nc3ccc(C#N)cc3)ccc2n1-c1ccccc1
-2%	14	0%	1.4%	CNC(=O)CN(Cc1ccccc1)S(=O)(=O)c1ccccc1
-9%	1	-12%	-5.6%	Cc1ccc(NC2CC(=O)N(CCc3ccccc3)C2=O)cc1 (configuration not stated)
-55%	-6	18%	-0.8%	COc1ccc(/C=N\Nc2ccccc2[N+](=O)[O-])c(C(=O)O)c1OC
.	.	-4%	1.0%	C#CCNC(=O)C1=C[C@@H](c2ccc(C#C)cc2)C[C@@H](OCc2ccc(CO)cc2)O1
-9%	5	0%	?	COC(=O)C1=C(C)NC(=O)NC1c1ccc(-c2ccccc2Cl)o1 (configuration not stated)
.	.	8%	2.7%	CC(C)NC(=O)C(=O)NCCC1CCCCN1S(=O)(=O)c1cccs1 (configuration not stated)
0%	.	0%	2.9%	COc1ccc(C(=O)N2CCC(NC(=O)C(Cc3ccccc3OC)NC(C)=O)CC2)cc1 (configuration not stated)
-1%	.	0%	0.1%	CC1CC2(CCCC2)N(C(=O)N(C)C)c2ccc(F)cc21 (configuration not stated)
-73%	8	1%	-2.4%	COc1cc(/C=N/n2cnnc2)ccc1OCc1ccccc1
-6%	.	-5%	-1.6%	O=C(N/N=C/C(Br)=C/c1ccccc1)c1ccccc1[N+](=O)[O-]
.	.	11%	4.9%	CC1(C)CC(=O)C=C(c2cccc3c2Oc2ccccc2S3)C1
-6%	-5	4%	6.0%	CCOC(=O)c1sc(=NC(=O)c2ccc(S(=O)(=O)N3CC(C)OC(C)C3)cc2)n(C)c1C (configuration not stated)
-1%	-1	-3%	4.0%	Cc1ccc(C(=O)CC2(O)C(=O)N(Cc3ccccc3Cl)c3ccccc32)o1 (configuration not stated)
0%	-1	1%	-4.8%	CC(=O)N1[C@@H]2CC3C4CC=C5C[C@@H](O)CC[C@]5(C)C4CC[C@]3(C)[C@@]21C(C)=O (some centres not stated)
-4%	1	-8%	-1.1%	CCN(CC)CCOC(=O)C1(c2ccc(OC)c(OC)c2)CCCC1
-2%	3	-4%	5.2%	CCOC(=O)N1CCN(CC(=O)Nc2ccc(F)cc2F)CC1
2%	.	2%	-1.4%	Cc1ccc(CNC(=O)c2nccnc2C(=O)O)cc1
.	.	1%	4.0%	O=Cc1ccc(C(=O)OCC(=O)NC(=O)Nc2ccccc2F)cc1
18%	-4	-7%	8.0%	Brc1ccc(CN2C3=NCCCN3c3ccccc32)cc1
-8%	-4&-18	-23%	-1.6%	COc1ccc2c(c1)O[C@H](c1ccc3c(c1)OCO3)[C@@H](OC(=O)N[C@H]1CCCc3ccccc31)C2=O
-47%	7	-4%	8.2%	OCCNCc1cccc(OCc2ccc(Cl)cc2)c1
-2%	-1	?	?	Cc1ccc2cc(C#N)c(N3CCCN(C(=O)C4CCCO4)CC3)nc2c1C (configuration not stated)
6%	.	7%	2.4%	CCCCc1ccc(NC(=O)C(=O)NCCN2CCN(C(=O)c3ccc([N+](=O)[O-])cc3)CC2)cc1
-10%	6	0%	-7.6%	C=CCNC(=S)NNC(=O)c1cccc(Br)c1
-4%	-3	-4%	-3.6%	O=C(CSc1nc(-c2cccs2)cc(C(F)(F)F)n1)NCCCn1ccnc1
1%	.	-12%	-0.4%	Cc1ccc(-c2nnn(CC(=O)N(CC(=O)NC3CCCC3)c3ccc(F)cc3)n2)o1
?	-4	-6%	0.6%	COc1ccc(C2=NN(C(=O)/C=C/c3ccccc3)C(c3ccccc3)C2)c(OC(C)=O)c1 (configuration not stated)
.	.	-16%	0.3%	Cc1ccc(OC(=O)c2ccccc2)cc1C
-2%	8	-9%	-0.1%	NS(=O)(=O)c1ccc(NC(=O)COC(=O)c2ccc(Cl)nc2)cc1

Source: PubChem BioAssay (National Center for Advancing Translational Sciences (NCATS))

The list is partial; the hit share may differ from the screen's.
